Screening data (PubChem BioAssay)
A1 inh = caspase 3/7 activation in MEF A1-2A-BIM cells, primary screen, A1 inhibitor project, cell-based, luminescence, HTS | caspase activation, % (test concentration not listed) | 330,000 compounds, 0.066% hits | Caspase-Glo 3/7 luminescence, 3 h; percent of clofoctol response, vehicle zero | AID 2462, 2010;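 active means over half of replicate activation scores above 10%, or exactly half above 10 with the replicate mean above 10; inconclusive means replicate mean below 10 yet half the replicates above 10; inactive means over half of replicates below 10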;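 further: wells of about 30 µL received 50 nL stock; many hits fall short of the cut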
RanGTP-Imp inh = inhibitors of RanGTP-importin-beta interaction, primary screen, biochemical, FRET, CFP-Ran, YFP-importin-beta, homogeneous | Ran GTPase (GTP-bound) - importin-beta complex | cell-free CFP-Ran/YFP-importin-beta FRET ratio | inhibition, % (concentration not given with the values) | 300,000 compounds, 1.1% hits | AID 2216, 2009;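 active means most replicates above 15%; inconclusive means exactly half above 15%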;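 further: 0% = DMSO wells and 100% = Ran loaded with GDP instead of GTP; wells of about 40 µL received 100 nL stock; the first replicate is given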
LANA-H2A inh = blockers of LANA interaction with H2A/H2B – biochemical, FP readout, HTS, primary screen; inhibition, % (test concentration not listed); 320,000 compounds, 0.6% hits; AID 2629, 2010; cell-free LANA-H2A/H2B peptide, fluorescence polarization; in the data active means inhibition mostly above about 10%, no sharp cut-off; inactive means mostly below about 6.7%;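 further: stock transfer was 7.5 nL into about 10 µL; 0% = median of vehicle wells and 100% = median of positive control wells; one replicate is shown; the record names a cut of 25% in any replicate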
Target sequence (Q9QR71 whole entry, looked up): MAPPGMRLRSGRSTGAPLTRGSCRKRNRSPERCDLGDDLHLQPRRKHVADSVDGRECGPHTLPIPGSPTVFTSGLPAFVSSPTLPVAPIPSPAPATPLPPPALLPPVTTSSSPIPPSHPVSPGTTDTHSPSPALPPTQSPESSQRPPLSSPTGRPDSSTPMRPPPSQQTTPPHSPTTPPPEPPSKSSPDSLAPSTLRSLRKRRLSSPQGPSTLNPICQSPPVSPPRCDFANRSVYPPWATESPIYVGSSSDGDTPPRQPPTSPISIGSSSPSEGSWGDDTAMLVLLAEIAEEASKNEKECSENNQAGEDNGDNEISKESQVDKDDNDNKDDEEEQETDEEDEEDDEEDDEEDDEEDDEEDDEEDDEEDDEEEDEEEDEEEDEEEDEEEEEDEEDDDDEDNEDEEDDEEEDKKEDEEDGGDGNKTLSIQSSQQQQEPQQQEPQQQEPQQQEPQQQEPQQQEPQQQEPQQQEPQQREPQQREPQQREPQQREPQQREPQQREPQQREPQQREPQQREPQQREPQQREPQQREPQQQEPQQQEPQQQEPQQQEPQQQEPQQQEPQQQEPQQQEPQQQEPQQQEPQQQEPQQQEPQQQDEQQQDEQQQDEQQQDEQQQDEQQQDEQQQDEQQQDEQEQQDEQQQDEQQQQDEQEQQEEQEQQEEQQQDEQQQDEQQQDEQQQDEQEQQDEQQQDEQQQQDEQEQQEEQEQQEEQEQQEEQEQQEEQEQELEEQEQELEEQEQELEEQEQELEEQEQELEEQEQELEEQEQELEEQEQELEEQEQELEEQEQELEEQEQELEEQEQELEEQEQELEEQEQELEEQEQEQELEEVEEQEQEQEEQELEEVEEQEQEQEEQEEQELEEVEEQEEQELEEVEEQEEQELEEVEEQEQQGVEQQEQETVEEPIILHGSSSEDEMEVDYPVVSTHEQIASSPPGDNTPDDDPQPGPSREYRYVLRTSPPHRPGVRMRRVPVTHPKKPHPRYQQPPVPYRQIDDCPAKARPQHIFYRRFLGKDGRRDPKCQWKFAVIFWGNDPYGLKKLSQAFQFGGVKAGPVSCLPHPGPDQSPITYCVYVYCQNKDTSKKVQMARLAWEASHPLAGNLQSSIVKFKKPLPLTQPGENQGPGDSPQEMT
Vif A3G = inhibitors of Vif binding to APOBEC3G peptide, primary screen, biochemical, TR-FRET, GST-Vif 1-94, biotin-A3G peptide, dose response retest (AID 1117319). Virion infectivity factor (Human immunodeficiency virus type 1 group M subtype B (isolate …. TR-FRET GST-Vif / biotin-A3G peptide binding; higher % means a stronger effect; test concentration not given here; strong numbers were not always called active. 260,000 compounds, 0.57% hits. inhibition, %; hits with a dose series show IC50 in µM;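 active means above the screen mean plus three standard deviations and confirmed in dose response; inconclusive means results disagree or hit not tested in dose response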;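 further: Vif residues 1-94 fused to GST binding biotinylated APOBEC3G peptide 110-148; 0% = full assay without inhibitor and 100% = GST in place of GST-Vif; retest series ran down from 100 µM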
Calb FLC = C. albicans growth inhibition with fluconazole, primary screen, CaCi-2 strain, Alamar Blue fluorescence; C. albicans CaCi-2 (fluconazole-resistant clinical isolate) + fluconazole, 48 h; growth inhibition, % (concentration not given with the values); 300,000 compounds, 0.57% hits;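 active means most replicates above 75%; inconclusive means exactly half above 75%; inactive means most below 75%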;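 further: all wells also contain fluconazole at 8 µg/ml as a sub-toxic cotreatment; 0% = median of DMSO wells and 100% = median of geldanamycin control wells; wells of about 8 µL received 7.5 nL stock; the first replicate is given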
Beta apoptosis = inhibitors of cytokine-induced beta cell apoptosis, primary screen, luminescence | INS-1E cytokine-induced death, ATP luminescence, 48 h; percent of positive-control rescue, neutral wells zero | protection from apoptosis, % (test concentration not listed) | 300,000 compounds, 0.8% hits;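 active means all replicates at 75% or more, or half of them and the mean; inconclusive means half reach 75% but not the mean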;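 further: 0% = cytokine-treated negative control wells and 100% = positive control rescue; higher means more ATP so stronger rescue from cytokine killing; wells of about 40 µL received 100 nL stock; the first replicate is given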
T cruzi inh = inhibitors of intracellular T. cruzi growth, primary screen, luminescence, NIH3T3 host cells. 300,000 compounds, 1.4% hits. AID 1885, 2009. T. cruzi beta-gal in NIH3T3, 90 h. inhibition, % (test concentration not listed);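 active means mean inhibition across valid replicates above about 55%, limit read from the data; inconclusive means mean below that limit but half or more replicates reach it; inactive means mean below it, under half of replicates reach it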;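 further: signal also drops with host cell toxicity which is not excluded here; 0% = plate median of DMSO wells and 100% = zero luminescence signal; higher percent means less beta-gal luminescence so fewer parasites; stock transfer was 50 nL into about 50 µL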
AF4-AF9 inh = inhibitors of AF4 peptide binding to AF9, primary screen, biochemical, AlphaScreen, biotin-AF4 peptide, FLAG-AF9, single point. Protein AF-9 (Homo sapiens), P42568. inhibition, % at 10 µM. 350,000 compounds, 0.47% hits;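 active means every replicate reaching a set inhibition limit, whatever the replicate mean, cut at about 25% in these data; inconclusive means mean inhibition reaches that limit but some replicates miss it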;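 further: 0% = plate neutral control median and 100% = total signal loss; the record names both 10 and 1 µM as test concentration; the first replicate is given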
* = called active by the depositor; ? = inconclusive; nt = no result given.

SMILES	A1 inh	RanGTP-Imp inh	LANA-H2A inh	Vif A3G	Calb FLC	Beta apoptosis	T cruzi inh	AF4-AF9 inh
Cc1nn(CCC(=O)NNC(=S)Nc2ccc(F)cc2)c(C)c1Br	0.2	-2.8	-6.2	-6%	2	3	-14	-1.0
Cc1ccc(-c2nnc(SCC(N)=O)n2C)cc1	2.2	-0.9	-7.9	10%	16	-4	-6	-2.4
CCOc1ccc(/C=C/C(=O)Oc2ccc(OC)cc2)cc1	-0.3	-1.9	1.8	nt	-11	-1	-12	-0.5
O=C(c1ccccc1)c1ccccc1C(=O)N1CCOCC1	1.3	4.5	-4.6	5%	1	1	-18	?
COc1ccc(S(=O)(=O)Nc2cc(S(=O)(=O)c3ccccc3)c(O)cc2C)cc1	0.6	2.2	0.2	-6%	25	-10	-16	2.0
COc1ccc(/C=N/NC(=O)c2ccc3nc[nH]c3c2)c(OC)c1OC	0.7	1.6	-5.2	nt	0	-11	-3	0.5
O=C(N/N=C/c1ccc(OCc2ccccc2)cc1)c1ccncc1	-3.7	2.2	0.2	3%	-3	1	-9	-0.1
CCc1ccc(-c2nnn(Cc3nn[nH]n3)n2)cc1	0.1	-0.5	0.9	19%	-4	1	1	nt
COC(=O)c1ccc(C2NC(=O)CCC2[N+](=O)[O-])cc1 (stereo not drawn)	0.4	-5.3	-10	nt	8	-1	-8	2.0
Cc1occc1C(=O)NNC(=O)C1CCCCC1	0.1	-0.1	-0.7	nt	19	-1	-9	nt
N#Cc1c(N)c(C(=O)c2ccc(Cl)cc2)n2c1CCC2	0.0	3.6	-1.5	-3%	50	3	0	nt
COc1ccc(NC(=O)CNS(=O)(=O)c2ccc(Cl)cc2)cc1	0.6	4.1	3.7	30%	19	0	5	nt
O=C(CCCOc1ccc(Cl)cc1Cl)N1CCCc2ccccc21	0.1	-0.2	1.5	6%	-5	-13	15	nt
Cc1ccc(C)c(C(=O)O/N=C(\N)c2ccc(Br)cc2)c1	-0.8	-2.2	5.1	4%	-2	-5	1	nt
CCOC(=O)C(C)Sc1nc2ccccc2c(=O)n1CC (stereo not drawn)	1.0	nt	-0.9	-3%	nt	-6	nt	nt
CCc1c(C)nc(SCC(=O)CC(=O)OC(C)C)c(C#N)c1C	0.1	-2.7	3.4	-3%	?	-4	2	nt
O=C(O)c1ccc(-n2cccn2)nc1	0.5	1.5	0.2	-2%	-7	3	-8	-1.8
C=CCn1c(-c2ccc(OC)c(OC)c2)n[nH]c1=S	1.4	-2.4	-1.3	9%	5	2	-7	nt
COc1cc(Cl)c(C)cc1NC(=O)CN(C)C1CCS(=O)(=O)C1 (stereo not drawn)	-0.1	nt	-4.0	nt	nt	-6	nt	3.3
CS(=O)(=O)N(CC(=O)N1CCN(c2ccccc2)CC1)c1ccc(Cl)c(C(F)(F)F)c1	0.7	4.0	-4.7	-7%	-4	-6	2	nt
Cc1ccc(S(=O)(=O)N2CCC(C(=O)O)CC2)cc1C(=O)O	0.0	5.6	-3.3	13%	nt	-1	-4	nt
Cc1ccc(-c2nn(-c3ccccc3)cc2C(=O)N2CCN(c3ccccn3)CC2)cc1	0.9	1.3	-2.2	1%	-14	4	17	5.8
Cc1nn(C(C)C)c(C)c1CN1CCN(Cc2ccsc2)C(CCO)C1 (stereo not drawn)	0.1	?	-3.1	nt	3	-3	40	-1.1
CC(C)NC(=O)c1cc2ccccc2o1	-0.6	-2.5	-3.7	-1%	-6	-3	-10	nt
COC(=O)c1ccccc1NC(=O)c1cc2n(n1)C(C(F)F)CC(C(F)F)N2 (stereo not drawn)	-0.5	-0.1	-0.6	-6%	13	4	12	nt
CCOC(=O)CSc1nc(C2CC2)nc2ccccc12	0.3	2.0	4.5	?	-12	-2	0	nt
COC(=O)[C@]1(CC(C)C)N[C@H](c2ccc(-c3ccc(C(C)=O)cc3)cc2)[C@@H]2C(=O)N(C)C(=O)[C@@H]21	-0.7	nt	-4.3	nt	nt	-3	nt	-3.0
COc1ccc(CCN(C)CCc2ccc(OC)c(OC)c2)cc1OC	-0.8	4.5	-1.8	nt	-16	nt	49	-1.9
COc1ccc(S(=O)(=O)c2c(C)c(NS(=O)(=O)c3ccccc3)cc(C)c2O)cc1	0.0	4.3	-3.9	-2%	12	1	-1	-1.0
CC(NC(=O)C1=CC=CN2CCS(=O)(=O)N=C12)c1ccc(Cl)c(Cl)c1 (stereo not drawn)	1.1	nt	2.2	4%	nt	-4	nt	-2.7
CCOc1cccc2c1OC1(C)CC2NC(=O)N1c1cccc(Cl)c1 (stereo not drawn)	0.4	4.7	1.8	0%	-9	-2	-2	nt
C/C(=N\OC(=O)c1ccc(F)cc1)c1sc(-c2ccc(Cl)cc2)nc1C	-8.1	-2.4	0.9	nt	-3	-9	4	4.6
C[C@@H]1CN([C@H](C)CO)C(=O)c2cc(NC(=O)c3ccncc3)ccc2O[C@@H]1CN(C)C(=O)Nc1ccccc1	-0.4	nt	-2.1	nt	nt	-2	nt	-2.3
O=C(N1CCOCC1)C12CC3CC(C1)CC(C(=O)N1CCOCC1)(C3)C2	1.6	-6.7	-1.1	5%	-4	-1	-1	nt
O=C(CNC(=O)c1ccccc1Cl)NC1CCN(Cc2ccccc2)CC1	0.8	-4.8	4.5	nt	-7	3	-6	-0.9
O=C(COc1ccc(Br)cc1Cl)c1ccc[nH]1	-2.6	3.1	2.9	nt	-11	-10	-2	0.8
O=C(CCNS(=O)(=O)c1ccccc1)N1CCOCC1	0.0	4.6	2.3	-4%	-2	0	-2	-1.7
CCOc1cc(/C=N/Nc2nc(=O)[nH]nc2C)ccc1O	0.0	-3.1	-0.3	nt	-9	2	11	-0.6
C=CCOc1ccc(/C=C2\N=C(C)OC2=O)cc1OC	-0.5	1.9	1.6	20%	-7	-5	10	-0.8
Cn1c(=O)c2c(nc(SCC(=O)NCc3ccc4c(c3)OCO4)n2Cc2ccc(F)cc2)n(C)c1=O	-0.3	2.1	-1.5	nt	45	11	8	nt
CS(=O)(=O)Oc1ccc(Br)cc1/C=C1/N=C(c2ccco2)OC1=O	0.0	-2.5	-2.4	0%	0	-1	-13	nt
CSc1sc(C(=O)NNC(C)=O)c2c1C=CCC2	0.2	2.6	1.0	33%	35	-2	-8	-1.6
COc1ccc(-c2cc(N)n(S(=O)(=O)c3ccc(F)cc3)n2)cc1OC	-0.3	4.9	-0.7	3%	4	4	3	-10
Cc1ccc2c(CC(=O)OC(C)C(=O)Nc3ncc(Cl)cc3Cl)coc2c1 (stereo not drawn)	0.1	4.7	nt	13%	-8	-3	6	-1.9
COC(=O)C1=C(C(=O)OC)[C@@H]2N(C)c3ccccc3[C@@]23C[C@@H](CO)N(C(=O)C2CCC2)C3=N1	-0.7	-0.1	0.8	nt	8	-5	7	-20
CCCn1nc(NC(C)=O)c2cc3cccc(C)c3nc21	0.4	69*	-13	-6%	-8	5	-1	-17
CN(C)Cc1cc(C(C)(C)C)c(O)c(C(C)(C)C)c1	-1.2	0.4	-2.2	-2%	nt	-13	28	nt
O=C(Nc1cccnc1)c1cc(-c2ccccc2)on1	-0.1	-2.7	-5.4	5%	-30	-4	-14	nt
COc1ccc(NC(=O)CN(C)C(=O)C2CCCO2)cc1 (stereo not drawn)	-1.4	nt	8.5	-8%	nt	0	nt	-1.0
COc1ccc(Cn2c(=O)[nH]c3cc(C(=O)NCCCN4CCCC4)ccc3c2=O)cc1	-0.3	-1.2	2.6	-1%	-9	-1	-1	nt
CC1CCCCN1C(=O)C1CCN(c2nc(-c3ccccc3)nc3c2CCC3)CC1 (stereo not drawn)	0.4	1.8	2.2	nt	-1	27	39	-10
Cc1nn(Cc2ccc(F)cc2)c(Cl)c1/C=N/NC(=O)c1ccccc1	-0.3	-2.9	-3.3	5%	?	2	66*	-0.9
Cc1cc2nc3c(c(=O)n2[nH]1)CCCC3	-0.6	5.2	1.2	11%	1	6	0	nt
O=C(COc1ccccc1)Nc1ccc(N2CCCCC2)cc1	-1.0	4.1	2.4	nt	-9	0	7	-14
CCn1c(=N)n(CC(O)COc2cccc(C)c2)c2ccccc21 (stereo not drawn)	0.6	1.2	6.0	4%	-12	3	14	nt
O=C(O)CCCNc1c(C(=O)Nc2ccc(Cl)cc2)cc([N+](=O)[O-])cc1[N+](=O)[O-]	-0.2	0.4	-1.7	1%	-1	7	-12	nt
COc1ccc(NC(=O)c2ccc(C(=O)c3ccccc3)o2)cc1	-0.8	nt	-3.9	19%	nt	-8	nt	nt
CCCc1cc(C(=O)N2CCCC(C(=O)c3cccc4ccccc34)C2)n(C)n1 (stereo not drawn)	-0.3	-0.2	-0.1	16%	-2	-8	8	5.5
CC(=O)c1ccc(OCCCC(=O)N2CCN(S(=O)(=O)c3ccc(C(C)C)cc3)CC2)cc1	-0.8	1.8	4.0	-1%	6	nt	36	-1.2
COc1cccc(N2CCN(CC(=O)NC3=Nc4ccccc4N=C(C)C3c3ccccc3)CC2)c1 (stereo not drawn)	-0.1	0.1	2.6	-2%	12	nt	12	nt

Additional structures.
SMILES	A1 inh	RanGTP-Imp inh	LANA-H2A inh	Vif A3G	Calb FLC	Beta apoptosis	T cruzi inh	AF4-AF9 inh
CC(C)Cc1ccc(C(C)NC(=O)c2ccc(=O)[nH]c2)cc1 (stereo not drawn)	-0.6	4.5	-0.7	7%	-42	-1	12	-4.2
Cc1cc(=O)oc2c3c(cc(OCC(=O)NCc4ccncc4)c12)OC(C)(C)CC3	-0.2	-0.5	-1.9	nt	-1	16	13	5.1
COc1ccccc1N(C(=O)Cn1nnc(-c2ccc(C)o2)n1)C(C(=O)NC1CCCC1)c1ccncc1 (stereo not drawn)	0.1	2.6	-5.7	nt	25	-1	-5	2.9
CC1=NN(C(=O)c2ccoc2C)C(O)(C(F)(F)F)C1 (stereo not drawn)	0.1	0.8	8.7	nt	-2	2	-31	-1.5
COc1ccc(NC(=O)c2cc(-c3ccc4c(c3)OCO4)on2)cc1	-0.1	2.2	-6.6	nt	12	1	3	4.7
Cc1ccc(S(=O)(=O)Nc2cc(-c3ccccc3)nn2C)cc1	0.7	3.2	0.7	nt	-3	-4	-25	nt
Cc1cc(C)c(C2=Nn3c(C)nnc3SC2C)cc1C (stereo not drawn)	0.6	2.6	-12	nt	8	9	-15	0.2
CCc1ccccc1NC(=O)CNC(=O)c1ccc(-n2cncn2)c([N+](=O)[O-])c1	0.7	-1.5	-0.3	7%	-11	-2	-5	1.0
COc1ccc(OC)c(CNC(=O)Cc2c(C(=O)O)[nH]c3ccccc23)c1	0.5	2.0	-5.6	0%	10	-1	1	nt
CC(C)(C)c1ccc(OCC(=O)Nc2cccc(S(=O)(=O)NC3=NCCCCC3)c2)cc1	0.5	nt	1.6	-7%	nt	3	nt	-10
